LT uptake inh – anthrax lethal toxin internalization inhibition; Cells, anthrax lethal toxin internalization, FRET ratio (460/530); Potency, µM (doses to about 40 µM), without a hit: at the top dose activity change, negative = inhibition, usual class: inhibitors; 70,000 compounds, 0.67% hits; active = well fitted falling ratio curve with the 530 nm signal flat; inconclusive = other ratio curves, or a change in one channel alone; inactive = flat curves in the ratio and both channels; the % refers to the ratio; further: on the % scale 0 is the no-effect control and ±100 the full control effect; nearly all actives have a fitted effect of over 50% in size; tested in ME-180 cells; beta-lactamase reporter
Prx2 Sm inh – Schistosoma mansoni Prx2 inhibition; Potency, µM; 65,000 compounds, 0.07% hits; AID 448; S. mansoni Prx2 activity coupled to TGR/GSH (TGR is thioredoxin glutathione reductase), NADPH fluorescence loss, qHTS; some inactives read as strong as hits; active means full or partial inhibition curve with a strong effect at the top dose; inconclusive means weaker partial or single-point curve; inactive means no accepted curve; further: series up to 57 µM; many of its hits are not listed in these tables
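Coupled assay in which S. mansoni TGR passes NADPH reducing equivalents via glutathione to Prx2, which reduces H2O2. Compounds were preincubated 15 min at room temperature with 25 nM TGR/50 nM Prx2 mix. Kinetic NADPH fluorescence loss (ex 365/em 450 nm) was monitored.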
Starred values were filed as active, the others as inactive; ? = inconclusive; · = not tested or not shown; & = joins results of further samples; [ ] = another dose, or the depositor's remark. Potency means the concentration at half of the fitted maximal effect. These rows are one share of the data; the hit share may differ from the screen's.

canonical_smiles | LT uptake inh | Prx2 Sm inh
CSc1cccc(NC(=O)C2CCCN(S(=O)(=O)c3cnc[nH]3)C2)c1 (centres undefined) | 15.2% | >57
Clc1ccc(C2CC(c3cccs3)n3ncnc3N2)cc1Cl (centres undefined) | ? | >57
N#Cc1cccc(-c2nc3cnc(N4CCOCC4)nc3n(C[C@H]3CCCO3)c2=O)c1 | ? | >57
CS(=O)(=O)N1CCC2(CCCN(Cc3ccccc3)C2)CC1 | ? | >57
O=S(=O)(c1ccccc1)c1nc(-c2cccs2)oc1NCCCn1ccnc1 | 11.2% | >57
CC(C)Oc1nc(-c2ccccc2O)nc2ccccc12 | · | >57
Cc1ccccc1-n1c(=O)cc(NCc2ccc3c(c2)OCO3)[nH]c1=O | -28.0% | >57
CC(=O)c1c(C)nn(C(=O)N2CCOCC2)c1C | 5.9% | ·
CC12CC3OS(=O)OC3CC3C4C(C(OCc5ccccc5)C31)C42 (centres undefined) | -10.3%[8 µM] | ·
C/C=C\C1=C(CO)C(=O)C2O[C@]2(CC=C(C)C)C1=O (some centres undefined) | 5.1%[8 µM] | ·
COc1ccccc1CNC(=O)c1cc2c(s1)CS(=O)(=O)C2 | -3.7% | >57
CCOC(=O)CN1CC23C=CC(O2)C(C(=O)Nc2ccc(F)cc2)C3C1=O (centres undefined) | 8.0% | >57
COC(=O)c1ccc(C(c2c(N)n(CC(C)C)c(=O)[nH]c2=O)N2CCN(c3ccccc3)CC2)cc1 (centres undefined) | 17.7% | >57
O=C(NCCCN1CCc2ccccc2C1)C1CCN(S(=O)(=O)N2CCCC2)CC1 | 20.9% | >57
O=C(CSCC(=O)NC1CC1)Nc1ccccc1 | 4.0% | >57
O=C(NCCc1ccncc1)c1ccccc1F | -3.6% | >57
Cc1ccc(C(=O)CSc2nnc(COc3cccc4cccnc34)o2)cc1 | ? | >57
Cc1nc2ccc(S(=O)(=O)NCC(=O)O)cc2s1 | 7.1% | >57
Cc1nc(C)c2c(c1C(F)(F)F)-c1ccccc1C2(F)F | 3.0% | >57
O=C1CC(N2CCN(c3ccccc3Cl)CC2)C(=O)N1c1ccc(F)cc1 (centres undefined) | -12.0% | ·
CCn1nnnc1SCC(=O)N1c2ccccc2CCc2ccccc21 | 4.1% | >57
CCOC(=O)Cn1c(CN2CCOCC2)nc2c1c(=O)[nH]c(=O)n2C | 9.7% | >57
CCOc1ccc(C(=O)Nc2c3c(nn2-c2ccc(C)cc2)CS(=O)C3)cc1OCC (centres undefined) | 5.0% | >57
CCn1c(=O)c2c(nc(SCC(=O)NCC3CCCO3)n2C)n(C)c1=O (centres undefined) | 10.5% | >57
Cc1cccc2cc(CN(CC3CCCO3)S(=O)(=O)c3ccccc3)c3nnnn3c12 (centres undefined) | 0.8% | >57
COc1cccc(C2C(C(=O)c3sc(C)nc3C)=C(O)C(=O)N2CCN(C)C)c1OC (centres undefined) | ? | >57
CCOC(=O)Cn1nc(-c2ccccc2)ccc1=O | -5.6% | >57
COC(=O)NC(CC(C)=O)c1cccc(F)c1 (centres undefined) | -9.2%[8 µM] | ·
O=C(O)C1CCCCC1C(=O)NC1CCCCC1 (centres undefined) | -11.4% | >57
C[C@H](NC(C)(C)C)C(=O)c1cccc(Cl)c1 | -6.8%[3.58 µM] | >57&>57
Cn1c(NC(=O)c2ccc(F)c(F)c2)cc(=O)n(C)c1=O | 8.2% | >57
CCOC(=O)C1CCN(S(=O)(=O)c2c(C)[nH]c(=O)[nH]c2=O)CC1 | 10.3% | >57
CCn1ncc2c(OCc3ccc(C#N)cc3)cc(C)nc21 | -12.2% | >57
CCc1ccc2[nH]c(=O)c(C(c3nnnn3Cc3ccccc3)N3CCOCC3)cc2c1 (centres undefined) | 0.1% | >57
COc1ccc(S(=O)(=O)N2CCC(C(=O)Nc3cccc(C(C)=O)c3)CC2)cc1C | ? | >57
Cc1ccc(CN2C(=O)CCC2C(=O)NCCCN2CCOCC2)cc1 (centres undefined) | -2.9% | >57
CCCSc1nc2c(cnn2-c2ccc(F)cc2)c(=O)[nH]1 | 6.0% | >57
Cc1cccc(-n2c(CNC(=O)c3ccc(S(=O)(=O)N4CCCC4)cc3)n[nH]c2=S)c1 | -1.5% | >57
O=C(CN1CCOCC1)Nc1cc(Cl)ccc1Cl | -4.8% | >57
Cc1cc(C)nc(SCC(=O)N2CCC(C(N)=O)CC2)n1 | -4.5% | >57
CCOc1ccccc1N1CC(C(=O)Nc2ccccc2N2CCOCC2)CC1=O (centres undefined) | 3.8% | >57
CCn1cc(C(=O)Nn2cnnc2)c(=O)c2ccc(C)nc21 | · | >57
Cc1noc(C)c1CSc1nnnn1-c1ccc(Cl)cc1 | ? | >57
O=C(CSc1n[nH]c(-c2ccco2)n1)Nc1sc2c(c1C(=O)Nc1ccccc1)CCCC2 | -20.9% | >57
CCC(C)N(C(=O)Cn1nnc2ccccc21)C(C(=O)NCc1ccco1)c1cccc(OC)c1 (centres undefined) | ? | >57
COCn1c2ccccc2c2nnc(C(=O)O)nc21 | 1.3%[8 µM] | ·
Nc1sc2c(c1C(=O)NC1CCS(=O)(=O)C1)CCCC2 (centres undefined) | -1.6% | >57
CC(C)N(Cc1nc(-c2ccccc2)no1)S(=O)(=O)c1ccccc1 | ? | >57
O=c1cc(Nc2ccc3c(c2)OCCO3)[nH]c(=O)n1-c1ccc(Cl)cc1 | ? | >57
CCCN1CC=C2C(C#N)=C(N)C(C#N)(C#N)C(c3cc(OC)ccc3OC)C2C1 (centres undefined) | ? | >57
CCCC(CCC)n1[nH]c(=O)c2c(C)cc(C)nc21 | ? | >57
CCOC(=O)C1=C(C)N=C2SCCC(=O)N2C1c1ccc(C(=O)OC)cc1 (centres undefined) | 0.0% | >57
CC1(C)CC(=O)C2=C(C1)Oc1ncn(CCCO)c(=N)c1C2c1ccccc1 (centres undefined) | 6.2% | >57
CCS(=O)(=O)N1CCC(C(=O)NCCCN2CCN(c3ccccc3F)CC2)CC1 | -12.7% | >57
Cc1ccc2nc(-c3ccccc3)cc(C(=O)O)c2c1 | -1.0% | ·
Cc1ccc(-n2c(Cc3cccn3C)nnc2SCC(=O)Nc2nnc(C)s2)cc1 | -7.8% | >57
CCOC(=O)Nc1ccc2c(c1)N(C(=O)OC)c1ccccc1CC2 | ? | >57
COCCOC(=O)c1c(C)oc2ccc(NS(=O)(=O)c3ccc(F)cc3)cc12 | -15.6% | ·
CCN(CCCNC(=O)CCNC(=O)Cn1cnc2ccccc2c1=O)c1ccccc1 | -5.4% | >57
COc1ncc2nc(-c3ccccc3)c(=O)n(C3CC3)c2n1 | ? | >57

The list goes on.
canonical_smiles | LT uptake inh | Prx2 Sm inh
O=C(NCc1ccco1)c1cc2sccc2n1Cc1ccccc1 | ? | >57
COc1cccc(Nc2cc(C)nc3nc(C)nn23)c1 | 4.3% | >57
CCOc1ccc(-c2cc(CCCC(=O)NCc3cccnc3)no2)cc1 | -7.6% | >57
CCOc1cccc2cc(C(=O)Nc3cc(C)on3)c(=O)oc12 | 9.6% | >57
COc1ccc(-c2nnc3ccc(SCC(=O)NCc4ccco4)nn23)cc1OC | 1.3% | >57
O=C(NCCCN1CCN(CCCNC(=O)c2ccc(F)cc2)CC1)c1ccc(F)cc1 | 10.0% | >57
Cc1cc2c3nonc3ccc2n1C | -0.5% | ·
Cc1ccc(NC(=O)c2ccc(S(=O)(=O)NCC3CCCO3)cc2)cc1 (centres undefined) | -6.4% | >57
Cc1ccc(C)c(OCCCCCn2ccnc2)c1 | 5.0% | ·
COc1ccc(OCC(=O)N2CCN(c3nnc(-c4ccccc4)c4ccccc34)CC2)cc1 | ? | >57
COc1ccc(S(=O)(=O)N(CC(=O)N2CCN(C)CC2)C2CCCCC2)cc1OC | -7.2% | >57
CN(C(=O)c1cnc(N2CCN(c3ncccn3)CC2)c2ccccc12)c1ccc(Cl)cc1 | -2.3% | >57
Cc1cc(C)c2[nH]c(=O)c(CN(CC3CCCO3)C(=O)C3CCCO3)cc2c1 (centres undefined) | -4.2% | >57
CCC(Sc1nc(=O)cc(N)n1-c1ccccc1)C(=O)Nc1ccc(Cl)cn1 (centres undefined) | 8.6% | >57
N#CCSc1nnc(Cc2cccc3ccccc23)n1C1CCCCC1 | -1.3% | >57
COc1cc(C2/C(=C(\O)c3cc(C)ccc3C)C(=O)C(=O)N2CCN(C)C)ccc1O (centres undefined) | -14.4% | >57
COC(=O)c1ccc(CSc2nc3sc4c(c3c(=O)n2C)CCCC4)o1 | -9.0% | >57
Cc1ccc(SCCNC(=O)C(C)C)cc1 | 5.1% | >57
CC(=O)c1cc2c(cc1NC(=O)c1ccc(-n3nc(C)cc3C)cc1)OCO2 | ? | >57
O=C(Nc1ccc(F)cc1)N(CCCN1CCOCC1)Cc1cc2cc3c(cc2[nH]c1=O)OCO3 | -2.3% | >57
COc1ccc(CN(CC(=O)NCC2CCCO2)C(=O)CCC(=O)Nc2cc(C)ccn2)cc1 (centres undefined) | 10.9% | >57
CCCC(=O)Nc1ccccc1NC(=O)CN(C)S(=O)(=O)c1ccccc1 | · | >57
O=C1CC2(CCCC2)CC(=O)N1CCCCNC[C@H]1COc2ccccc2O1 | -2.2% | >57
CN1CCN(C(=O)CSc2nc(-c3cccs3)cc(-c3cccs3)c2C#N)CC1 | · | >57
Clc1ccc(Cn2cc(Br)cn2)cc1Cl | -18.3% | ·
COCCOC(=O)c1c(C)oc2ccc(OC(=O)c3ccc4c(c3)OCO4)cc12 | -15.2% | >57
Cc1cccc(-n2c(SCC(=O)Nc3nnc(C)s3)nnc2-c2ccoc2C)c1 | ? | >57
CCOC(=O)c1c(NC(=O)CSc2nnc(-c3ccccc3)n2CC)sc(C(C)=O)c1C | -10.3% | ·
O=c1c(-c2ccc(Br)cc2)coc2c(CN3CCOCC3)c(O)ccc12 | ? | ·
CCN1CCCC1CNC(=O)c1ccc(CS(=O)(=O)c2ccccc2C)o1 (centres undefined) | -9.5% | >57

Some of the entries so far, field by field.
CN1CCN(C(=O)CSc2nc(-c3cccs3)cc(-c3cccs3)c2C#N)CC1
- LT uptake inh: ·
- Prx2 Sm inh: >57

Clc1ccc(Cn2cc(Br)cn2)cc1Cl
- LT uptake inh: -18.3%
- Prx2 Sm inh: ·

Continued:
canonical_smiles | LT uptake inh | Prx2 Sm inh
c1cncc(-c2nnc(SCc3cccc4ccccc34)o2)c1 | ? | >57
FC(F)C(F)(F)C(F)(F)C(F)(F)c1cc(-c2ccccc2)n[nH]1 | ? | ?
COc1ccc(OC)c(-n2c(CN3CCC(C(N)=O)CC3)nc3ccccc3c2=O)c1 | -7.7% | >57
Cc1nn2c(N3CCOCC3)c3c(nc2c1-c1ccccc1)CCCC3 | -0.2% | >57
CCOC(=O)N1CCC(NCCNC(=O)c2ccccc2Cl)CC1 | 4.7% | >57
COC(=O)c1ccc(C(NC(=O)OCc2ccccc2)/C(F)=C/[C@@H](C)C(=O)Nc2ccc(OC)cc2)cc1 (some centres undefined) | -8.0% | ·
C=CCn1c(SCc2nnc(-c3ccccc3)o2)nnc1C(O)c1ccccc1 (centres undefined) | 6.2% | >57
COC(=O)[C@@H](NC(=O)NC1CCN(Cc2ccccc2)CC1)C(C)C | ? | >57
CC(=O)c1c(N2CCN(Cc3ccc4c(c3)OCO4)CC2)nc(=S)n(-c2ccccc2)c1C | -2.9% | >57
NCCCNC(=O)c1cc2ccccc2[nH]1 | -0.2% | >57
O=C1CCCC(O)=C1C=Nc1ccc2c(c1)oc1ccccc12 | -1.3% | >57
COc1ccc(NC(=O)CC2C(=O)N(c3cccc(OC)c3)C(=O)N2C2CCCCC2)cc1 (centres undefined) | 6.1% | >57
O=C(CCN1C(=O)c2ccccc2S1(=O)=O)Nc1nc2c(s1)CCCC2 | -24.7% | >57
Cc1ccc(C)c(CN2CCCNC2=O)c1 | -7.9% | >57
CCCCCCN(C(=O)CCCCCN1C(=O)NC(c2ccc(C(F)(F)F)cc2)C(C(=O)OCc2ccccc2)=C1C)C(C(=O)NCCCC)c1ccc(OCC(=O)OC)c(C(=O)OC)c1 (centres undefined) | 17.0% | ·
O=C1CCCC2=C1C(c1cccs1)n1ncnc1N2 (centres undefined) | 16.8% | >57
CC(C)NC(=O)NC(=O)CSc1ncc(C(F)(F)F)cc1Cl | -29.7% | >57
Cn1c(SCC(=O)N2c3ccccc3Sc3ccccc32)nnc1-c1ccco1 | -11.0% | >57
CCOC(=O)CSc1nc2c(cnn2-c2ccc(C)cc2)c(=O)[nH]1 | 1.5% | >57
CCCn1c(=O)c2c(nc(Br)n2CCC)n(C)c1=O | 1.0% | >57
C=CCSc1nnc(-c2cc(Br)ccc2N)c(=O)[nH]1 | ? | >57

Screens as filed in PubChem.
